Compound activity deposited in PubChem BioAssay by Johns Hopkins Ion Channel Center.
KCNQ2 enhance: enhances the rat KCNQ2 potassium channel; CHO-K1 KCNQ2, FluxOR thallium flux fluorescence; stronger effect = higher value; O88943; B-score at 10 µM; hit rate 0.54% among 310,000; AID 2239;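 active = fluorescence ratio B-score at least 3 SD of library B-scores, with initial fluorescence B-score within 3 SD, cut at about 5.3 in these data; same plate scores as AID 2156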;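 note: B-score of peak minus minimum over baseline fluorescence ratio after K+ and Tl+ stimulus; positive B-score means potentiation of KCNQ2 with more thallium influx and brighter signal; only the inactives scoring about 0 or higher are listed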
Target sequence (O88943 whole entry, looked up): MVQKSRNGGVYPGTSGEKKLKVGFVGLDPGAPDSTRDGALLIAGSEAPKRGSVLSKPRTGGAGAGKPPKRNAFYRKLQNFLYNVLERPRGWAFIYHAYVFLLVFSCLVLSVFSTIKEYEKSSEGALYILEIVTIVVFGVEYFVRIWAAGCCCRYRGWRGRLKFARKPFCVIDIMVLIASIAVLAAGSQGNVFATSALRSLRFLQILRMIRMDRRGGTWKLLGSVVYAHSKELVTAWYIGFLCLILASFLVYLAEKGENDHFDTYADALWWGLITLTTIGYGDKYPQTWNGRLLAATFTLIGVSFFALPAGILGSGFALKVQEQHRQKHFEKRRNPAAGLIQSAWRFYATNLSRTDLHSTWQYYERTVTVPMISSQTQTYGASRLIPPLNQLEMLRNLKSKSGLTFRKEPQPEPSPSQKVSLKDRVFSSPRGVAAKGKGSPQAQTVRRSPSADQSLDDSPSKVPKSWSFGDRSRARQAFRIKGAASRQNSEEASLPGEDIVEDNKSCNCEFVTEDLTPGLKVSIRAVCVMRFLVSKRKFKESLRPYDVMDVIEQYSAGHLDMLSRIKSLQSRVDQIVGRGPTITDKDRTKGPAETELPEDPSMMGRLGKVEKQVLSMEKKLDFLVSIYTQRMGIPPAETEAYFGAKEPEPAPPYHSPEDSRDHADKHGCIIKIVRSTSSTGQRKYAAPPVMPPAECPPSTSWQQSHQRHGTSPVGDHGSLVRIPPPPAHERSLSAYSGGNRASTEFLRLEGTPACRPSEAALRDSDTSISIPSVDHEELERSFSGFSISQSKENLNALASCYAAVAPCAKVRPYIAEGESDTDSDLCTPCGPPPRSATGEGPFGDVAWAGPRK
KCNQ2 enhance baseline: further read-out of KCNQ2 enhance, marked with its call; B-score; compound at 10 µM; measured here: initial fluorescence intensity artifact check;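 brightness before thallium and not channel activity; 0 = typical well and far values either way flag optical interference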
* marks the source's active call; other numbers are inactive results.

SMILES | KCNQ2 enhance | KCNQ2 enhance baseline
COc1cc(C2/C(=C(\O)c3ccc4c(c3)OCCO4)C(=O)C(=O)N2CCN2CCOCC2)cc(OC)c1OC (centres undefined) | 0.36 | -0.77
O=C(O)c1ccccc1C(=O)Nc1ccc(Oc2cccc3ccccc23)cc1 | 0.74 | -0.02
CC(Oc1ccccc1)C(=O)N1CCN(c2ccc(N3CCCCC3)nn2)CC1 (centres undefined) | 0.01 | 1.5
CCCCc1ccc(NC(=S)N2CCCC(CO)C2)cc1 (centres undefined) | 0.05 | -0.27
COc1cc(NC(=O)CN2C(=O)NC(C)(CCC(C)C)C2=O)cc(OC)c1 (centres undefined) | 0.78 | 0.27
COc1cccc2cc(C(C)OC(=O)Nc3ccc(C)cc3)oc12 (centres undefined) | 0.75 | -0.53
Cc1cccn2c(=O)c3cc(C(=O)NCc4ccc(F)cc4)c(=N)n(CC4CCCO4)c3nc12 (centres undefined) | 2.2 | -0.01
CCCCn1c(SCC(=O)Nc2cccc(C)n2)nnc1-c1ccco1 | 1.1 | 1.1
CN(NC(=O)c1ccc(Cl)cc1Cl)C1=NS(=O)(=O)c2ccccc21 | 0.42 | 0.37
COc1cccc(-c2cc(C(=O)Nc3cc(C)n(Cc4ccc(Cl)cc4)n3)no2)c1 | 0.11 | 0.22
COC(=O)C1=C(O)/C(=C/c2cccc(OC)c2O)N=C1C | 0.64 | -2.5
COC(=O)CSc1nc(N)c2c3c(sc2n1)C(c1ccccc1)SC(c1ccccc1)C3 (centres undefined) | 0.44 | 0.69
Cc1nc2ncnn2c(C)c1CCC(=O)N1CCN(C(=O)c2ccco2)CC1 | 0.3 | 2
CCN(CC)S(=O)(=O)c1ccc(/C=C/C(=O)O)cc1 | 0.57 | -0.05
O=C(C1CCC(CNS(=O)(=O)c2cccc3nsnc23)CC1)N1CCN(c2ccccn2)CC1 (centres undefined) | 2.7 | -1.8
CSc1nc2ccc(NS(=O)(=O)c3c(Cl)cccc3Cl)cc2s1 | 1.3 | -0.06
CCOc1ccc(NC(=O)CN2C(=O)CSC2=O)cc1 | 0.3 | -0.06
O=C(Nc1ccc(F)cc1)Nc1ccccc1N1CCCCC1 | 1.5 | -0.28
CC12CC3(C)CC(C)(C1)CC(C(=O)NCc1cccnc1)(C2)C3 | 1.6 | -0.1
CC1CCCC(NC(=O)C2CC(=O)N(Cc3ccccc3)C2)C1C (centres undefined) | 1.8 | 0.92

Some of the entries so far, with values ahead of the structure:
KCNQ2 enhance	KCNQ2 enhance baseline	compound
2.7	-1.8	O=C(C1CCC(CNS(=O)(=O)c2cccc3nsnc23)CC1)N1CCN(c2ccccn2)CC1 (centres undefined)
1.8	0.92	CC1CCCC(NC(=O)C2CC(=O)N(Cc3ccccc3)C2)C1C (centres undefined)

More entries.
SMILES | KCNQ2 enhance | KCNQ2 enhance baseline
COc1ccc(CCN(C)C2CC(=O)N(c3ccccc3)C2=O)cc1OC (centres undefined) | 0.36 | -1.6
O=C(O)CCSc1nnc(COc2cccc3ccccc23)n1-c1cccc(Cl)c1 | 1.1 | 0.38
COc1ccc(Cl)cc1NC(=O)CC(C)=O | 0.33 | 0.34
O=C(NCCNC(=O)c1ccco1)c1ccc(Cl)c(Cl)c1 | 0.14 | -0.14
COc1ccc(C2C(C(=O)c3ccco3)=C(O)C(=O)N2CC2CCCO2)c(OC)c1 (centres undefined) | 0.1 | 1.1
Cc1ccc(Oc2ccc(S(=O)(=O)N3CCOCC3)cc2C(N)=O)c(-n2nc3ccccc3n2)c1 | 0.09 | -1.1
O=C(CSc1nnc(-c2ccc3c(c2)OCO3)o1)Nc1ncc(C(F)(F)F)cc1Cl | 1.6 | -1.1
CCCOc1ccc(C2C(C(=O)c3ccco3)=C(O)C(=O)N2CCCn2ccnc2)cc1 (centres undefined) | 0.21 | -0.16
COc1cc(C(=O)N2CCN(C)CC2)cc(OC)c1OC | 0.08 | -0.13
COc1cc(C(=O)Nc2ccc(F)cc2Cl)ccc1OCC(=O)N1CCOCC1 | 0.64 | -0.28
O=C(c1nn(Cc2ccccc2)c(=O)c2ccccc12)N1CCN(C/C=C/c2ccccc2)CC1 | 1.1 | -1.9
O=C(CN1C(=O)NC(Cc2c[nH]c3ccccc23)C1=O)Nc1cccc(S(=O)(=O)N2CCCC2)c1 (centres undefined) | 1.9 | 0.82
COc1ccc(-c2nn(-c3ccccc3)cc2C(=O)O)cc1OC | 0.36 | 1.2
Nc1nc(-n2cnnc2)nn1-c1ccccc1 | 0.31 | -0.86
Cc1ccc(CN2CC(C(=O)Nc3cc(C)ccn3)CC2=O)cc1 (centres undefined) | 1.8 | 0.93
CC(C)(C)Cc1nc(-c2ccc(Cl)cc2)no1 | 0.13 | -0.31
COC(=O)C(CCSC)NC(=O)Cn1ncc2c(=O)oc3ccc(C)cc3c21 (centres undefined) | 0.65 | -2.2
COC(=O)N1[C@H](Cc2ccccc2)C=C[C@]1(C)C(=O)NCc1ccccn1 | 0.67 | -0.21
C/C(=N/NC(=O)c1ccoc1C)c1cccc(NC(=O)C(F)(F)F)c1 | 1.8 | 1.2
COc1cc2[nH]c(=O)n(Cc3ccc(C(=O)N4CCC(N5CCCCC5)CC4)cc3)c(=O)c2cc1OC | 1.9 | -1.9
Cc1ccccc1NS(=O)(=O)c1ccc(NC(=O)c2ccco2)cc1 | 0.3 | 2.4
COc1ccc(OCC(=O)NCCC2=CCCCC2)c([N+](=O)[O-])c1 | 0.12 | 4.6
COc1ccc(C(=O)N/N=C/c2c(C)[nH]c(=O)[nH]c2=O)cc1 | 0.36 | -2.6
O=C(O)c1cccc(N/N=C/C2=C(Cl)c3cc(Cl)ccc3SC2)c1 | 2.6 | -0.01
O=C(OCC(=O)N1CCCC1=O)c1ccc(F)c(S(=O)(=O)N2CCOCC2)c1 | 0.48 | -1.4
CCN(CC(=O)NCc1ccco1)S(=O)(=O)c1ccc(OC)cc1 | 2.1 | -2.3
CCN(C1CCS(=O)(=O)C1)S(=O)(=O)c1ccc(OC)c(OC)c1 (centres undefined) | 0.75 | -0.8
Cc1ccc(CNC(=O)CN2C(=O)COc3ccc(S(=O)(=O)N4CCCCC4)cc32)o1 | 0.2 | -1
Cc1ccc(C)c(C(=O)CSc2nnc(C)s2)c1 | 1.6 | -0.02
CCOc1cc(C=O)cc(Cl)c1OCC(N)=O | 0.23 | -0.61
Cc1cc(C)cc(N(CC(=O)Nc2cccc(C)n2)S(=O)(=O)c2c(C)noc2C)c1 | 0.01 | -0.08
CCOc1ccccc1CN1CCN(Cc2cccc3nonc23)CC1CCO (centres undefined) | 0.66 | -0.62
O=C1c2cc(S(=O)(=O)NCCCO)ccc2-c2ccc(S(=O)(=O)NCCCO)cc21 | 0.76 | -1.2
CCOC(=O)C1=C(C)NC(=S)NC1c1ccc(-c2ccc(Cl)cc2)o1 (centres undefined) | 7.8* | 0.63*
CCCN(CCC)CCCNC(=O)c1cn(CCOC)c(=O)c2c1c1ccccc1n2C | 0.11 | 0.7
Cc1ccc(-n2ccc(=O)c(C(=O)Nc3ccc(S(=O)(=O)Nc4nccc(C)n4)cc3)n2)cc1 | 1.7 | 0.25
O=C(CCn1cccc1)NCc1ccccc1 | 1.1 | 1
Cc1cc(C(=O)NCCCN(C)C)c2ccccc2n1 | 0.84 | 0.22
Cc1ccc(C(=O)Nc2c(C)cc(-c3ccccc3)oc2=O)cc1 | 0.14 | -1.3
CCCCC(=O)Nc1ccc(C(=O)NCCN2CCOCC2)cc1 | 1.9 | -1.2

Retrieved by compound from the list above (4):
SMILES | KCNQ2 enhance | KCNQ2 enhance baseline
Cc1cccn2c(=O)c3cc(C(=O)NCc4ccc(F)cc4)c(=N)n(CC4CCCO4)c3nc12 (centres undefined) | 2.2 | -0.01
COc1cc(NC(=O)CN2C(=O)NC(C)(CCC(C)C)C2=O)cc(OC)c1 (centres undefined) | 0.78 | 0.27
CCCCc1ccc(NC(=S)N2CCCC(CO)C2)cc1 (centres undefined) | 0.05 | -0.27
O=C(c1nn(Cc2ccccc2)c(=O)c2ccccc12)N1CCN(C/C=C/c2ccccc2)CC1 | 1.1 | -1.9

Next structures.
SMILES | KCNQ2 enhance | KCNQ2 enhance baseline
C=C(C)CSc1nc(N)c2c(C)c(C)sc2n1 | 0.46 | -0.12
O=C1CC(N2CCSCC2)C(=O)N1CCc1ccccc1 (centres undefined) | 1.1 | 1
CCOc1cc(/C=C2/NC(=S)NC2=O)ccc1OCc1ccc([N+](=O)[O-])cc1 | 0.22 | 0.66
Cc1ccc2[nH]c3c(c2c1)CN(C)CC3 | 0.28 | 0.72
CCS(=O)(=O)N1CCCC(C(=O)NCc2ccc(C)cc2)C1 (centres undefined) | 1.4 | -0.35
O=C(NC1=NCCS1)c1ccccc1 | 0.38 | 1.1
COc1cccc(N2CCN(C(=O)Nc3ccc4c(c3)NC(=O)CO4)CC2)c1 | 0.49 | 0.32
CCOc1ccc2nc(NC(=O)c3c([N+](=O)[O-])cnn3CC)sc2c1 | 0.72 | -0.55
COC(=O)NCc1ccc2c(c1)OCO2 | 0.95 | 1.7
CC(=O)N1c2ccc(S(=O)(=O)N3CCOCC3)cc2CC1C (centres undefined) | 0.16 | 1.2
O=C(Nc1ccc(C(=O)N2CCCCC2)cc1)c1ccc(Br)cc1 | 0.23 | -1.1
CC1CCCCN1S(=O)(=O)c1ccc2c(c1)C(C)(C)C(=O)N2C (centres undefined) | 0.88 | -0.35
CCN(CC)c1ccc(/C=N/Nc2nc(C)cc(=O)[nH]2)cc1 | 0.41 | 2.9
CC(=O)Nc1ccc(-n2c(C)ccc2C)cc1 | 0.87 | -0.12
CCCC1=NN(C(=O)Cc2ccc(OC)c(OC)c2)C(O)(C(F)(F)F)C1 (centres undefined) | 0.08 | -2.2
N/C(=N\OC(=O)c1ccccc1Cl)c1ccccn1 | 0.59 | -1.4
CCOC(=O)c1cn(CC(=O)Nc2ccc(C(C)C)cc2)nn1 | 1.7 | 0.11
O=C1CC(C(=O)Nc2ccc(F)cc2)n2cnnc2N1 (centres undefined) | 0.64 | 1.4
O=C(c1ccccc1)C1CCc2occc2C1=O (centres undefined) | 1.4 | -0.59
COc1ccc(/C=C/c2c([N+](=O)[O-])c(=O)n(C)c(=O)n2C)c(OC)c1 | 0.76 | -0.03
COc1ccc(-c2c(=O)n(OC)c3ccccc3[n+]2[O-])cc1OC | 0.65 | 1.8
O=C(NCC1CCCO1)C1CCCN1C(=O)Nc1ccccc1[N+](=O)[O-] (centres undefined) | 0.03 | -1.2
Cc1cc(=O)[nH]c(-c2ccc(C(F)(F)F)cc2)n1 | 1.1 | -0.43
CC(C)(O)C#Cc1ccc(C(=O)N2CCN(c3ccccc3)CC2)cc1 | 0.47 | 0.33
CCn1c(NC(=O)c2ccco2)c(-c2ccccc2Cl)c(=O)c2ccccc21 | 0.36 | -0.81
CCOc1cc2ccccc2cc1C(=O)Nc1ccccn1 | 0.55 | -0.14
Cc1ccc(NC(=O)C2CCN(S(=O)(=O)c3ccc4c(c3)CCCC(=O)N4)CC2)cc1N(C)C | 0.7 | -0.08
Cc1cc(C)cc(NC(=O)COC(=O)c2cc(=O)[nH]c(=O)[nH]2)c1 | 0.79 | 0.92
Cc1cccc(N/C(N)=N/c2nc(C)c(Cc3ccccc3)c(=O)[nH]2)c1 | 0.43 | -1.1
Cc1nnc2n(C)c(=O)c3c4c(sc3n12)COC(C)(C)C4 | 1.4 | 1.4
O=C(Nc1ccnn1C1CCN(Cc2cc(Cl)ccc2O)CC1)c1cccnc1 | 1 | 0.44
O=C(c1cc(C(=O)N2CCOCC2)c2nc3ccccc3n2c1)c1cc(Cl)cc(Cl)c1O | 0.61 | -0.26
Cc1nn(-c2nnc(NCc3ccccc3)nn2)c(C)c1Br | 0.43 | 1.3
O=C(O)c1ccc(NC(=O)c2ccc(COc3ccccc3)o2)cc1 | 1.8 | -0.09
COn1c(-c2ccc(Cl)cc2Cl)nc2ncccc21 | 0.31 | 1
O=C(OCc1ccc(O)cc1)c1c(-c2ccsc2)oc2ccc(N3CCOCC3)cc12 | 1.5 | 1.4
c1ccc(CC2CCN(Cc3ccccn3)CC2)cc1 | 0.33 | -1.5
O=C(NC1CCCC1)c1ccc(Br)o1 | 0.13 | -2.8
Cc1cc(S(=O)(=O)Nc2c(C)nn(C)c2C)c(Cl)cc1Cl | 0.08 | 1.5
N#C/C(=C\c1ccccc1OCC(=O)O)c1nc2ccccc2[nH]1 | 1.2 | -1

Reformatted with tabs: 2 of the compounds above
mol	KCNQ2 enhance	KCNQ2 enhance baseline
O=C(OCc1ccc(O)cc1)c1c(-c2ccsc2)oc2ccc(N3CCOCC3)cc12	1.5	1.4
c1ccc(CC2CCN(Cc3ccccn3)CC2)cc1	0.33	-1.5

Other compounds
SMILES | KCNQ2 enhance | KCNQ2 enhance baseline
Nc1nc(Br)c2ccccc2c1-c1ccccc1 | 0.27 | 0.05
O=C(N/N=C/c1sc(=O)[nH]c1-[n+]1ccc2ccccc2c1)c1ccccc1[O-] | 0.01 | 0.61
COc1ccc(S(=O)(=O)N2CCOC2CNC(=O)C(=O)NCCCc2ccccc2)cc1 (centres undefined) | 1.3 | -0.13
c1coc(-c2ccnc3ncnn23)c1 | 0.22 | 1.9
COC(=O)c1sccc1NC(=O)c1c(Cl)cnn1C | 0.01 | -0.77
COCCCNC(=O)CSc1nc2ccccc2c(=O)n1CCc1ccc(S(N)(=O)=O)cc1 | 0.38 | -0.63
O=C(c1ccc2c(c1)CCN2S(=O)(=O)c1ccccc1)N1CCN(c2ccc(F)cc2)CC1 | 0.11 | 0.33
CN(c1ncnc(N)c1[N+](=O)[O-])C1CCS(=O)(=O)C1 (centres undefined) | 0.21 | -2.4
Cc1c(NC(=O)C(C)OC(=O)CC2CC3CCC2C3)c(=O)n(-c2ccccc2)n1C (centres undefined) | 1.6 | 0.45

Only part of the results is shown. The share of hits here may be higher or lower than overall.
